Screening results from PubChem.
EPAC1 ag val: Validation qHTS for agonist of cAMP-regulated guanine nucleotide exchange factor 3 (EPAC1) | AID 1645883, 2021 | 16,000 compounds, 1% hits | Potency, µM, for inactives: max response, positive = active, usual class: activators | EPAC1 Rap1b BODIPY-GDP exchange, fluorescence | Rap guanine nucleotide exchange factor 3 (Homo sapiens), O95398; active means well fitted activation curve with a large enough effect; inconclusive means small, poorly fitted or top-dose-only effect; inactive means no such curve, though single readings can be large or run the other way;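 further: nearly all actives have a fitted effect of over 70% in size; series mostly up to about 76 or 150 µM; scaled to a cAMP control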
Target sequence (O95398 whole entry, looked up): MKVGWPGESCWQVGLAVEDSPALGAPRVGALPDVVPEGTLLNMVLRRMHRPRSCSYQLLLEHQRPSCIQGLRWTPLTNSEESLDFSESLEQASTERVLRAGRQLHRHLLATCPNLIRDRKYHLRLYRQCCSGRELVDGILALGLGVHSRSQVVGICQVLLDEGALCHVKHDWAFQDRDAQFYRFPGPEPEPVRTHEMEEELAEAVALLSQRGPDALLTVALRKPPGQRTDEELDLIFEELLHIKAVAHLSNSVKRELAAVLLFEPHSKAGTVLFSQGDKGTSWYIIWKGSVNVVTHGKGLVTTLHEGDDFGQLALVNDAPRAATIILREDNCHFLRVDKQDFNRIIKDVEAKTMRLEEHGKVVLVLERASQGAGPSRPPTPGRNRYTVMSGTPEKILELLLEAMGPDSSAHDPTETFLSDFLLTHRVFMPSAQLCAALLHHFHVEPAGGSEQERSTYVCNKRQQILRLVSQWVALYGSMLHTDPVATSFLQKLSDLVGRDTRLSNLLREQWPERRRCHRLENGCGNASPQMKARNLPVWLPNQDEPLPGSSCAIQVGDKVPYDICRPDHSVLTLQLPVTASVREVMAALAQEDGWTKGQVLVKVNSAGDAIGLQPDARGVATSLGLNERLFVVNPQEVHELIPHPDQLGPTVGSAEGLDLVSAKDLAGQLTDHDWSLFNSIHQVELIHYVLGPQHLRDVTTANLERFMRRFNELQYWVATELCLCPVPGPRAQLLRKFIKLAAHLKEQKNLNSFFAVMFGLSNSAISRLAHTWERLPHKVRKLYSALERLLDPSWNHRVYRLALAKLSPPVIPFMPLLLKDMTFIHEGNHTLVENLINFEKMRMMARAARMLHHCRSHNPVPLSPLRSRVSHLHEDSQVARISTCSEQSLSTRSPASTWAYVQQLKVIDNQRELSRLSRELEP
* hit, by the source's call; & = joins results of further samples; [ ] = dose if it differs, or a comment. On the % scale 0 is the no-effect control and ±100 the full control effect; potency means the concentration at half of the fitted maximal effect. The list is partial, so the mix of outcomes need not match the whole.

COc1ccccc1CN1CCOc2ccc(C(C)(O)COc3ccccc3)cc2C1 (configuration not stated) was read as EPAC1 ag val -2.1%.
CCNc1ncc2nc(-c3cc(F)cc(F)c3)c(=O)n(C)c2n1 was read as EPAC1 ag val -14.7%.
For Cc1ccc2c(CC(=O)N3CCOc4ccc(CN5C[C@@H](C)O[C@@H](C)C5)cc4C3)cc(=O)oc2c1 the results were EPAC1 ag val -10.9%.
CSc1ccc(-c2ccc(C(=O)NCC3CCCO3)c(N3CCC(O)CC3)n2)cc1 (configuration not stated) was read as EPAC1 ag val -2.3%.
Screening [N-]=[N+]=N[C@@H](CCN1CC[C@H](NC(=O)OCc2ccccc2)CCC1=O)c1ccccc1 returned EPAC1 ag val 24.1%.
Screening O=C(/C=C/C(=O)Oc1ccccc1C(=O)O)Oc1ccccc1C(=O)O returned EPAC1 ag val inconclusive.
`COc1ccc(C2(C(=O)NCC3Cc4cccc(-c5nc(C)cnc5C)c4O3)CCCC2)cc1` (configuration not stated) gave EPAC1 ag val -4.1%.
`O=C(CCN1Cc2ccccc2OC(c2ccccc2)C1)N[C@@H]1CS(=O)(=O)C[C@H]1O` (some centres not stated) gave EPAC1 ag val 0.9%.
`C[S+](CC[C@H](N)C(=O)O)C[C@H]1O[C@@H](n2cnc3c(N)ncnc32)[C@H](O)[C@@H]1O` (some centres not stated) gave EPAC1 ag val -36.7%&3.6%[inhibitor].
N=C(C[C@@H](O)COc1ccccc1-c1ccccc1)N1CCCCC1 was read as EPAC1 ag val -2.0%.
CN1CCN(c2ncnc3ccc(-c4ccccc4C#N)cc23)CC1 was read as EPAC1 ag val -45.7%[inhibitor].
Screening CC(CNC1CCCCC1)OC(=O)c1ccccc1 (configuration not stated) returned EPAC1 ag val -32.0%[inhibitor].
Screening COc1ccc(C(=O)N2CCC3(CCCN(C(=O)Nc4cccc(F)c4)C3)CC2)cc1 returned EPAC1 ag val 3.3%.
Screening O=c1cnc2cnc(Nc3ccccc3)nc2n1Cc1ccc(F)cc1 returned EPAC1 ag val -19.3%.
For CCCCCCCCCCCCCCCC[n+]1ccc(CC(O)c2c(C)[nH]c3ccccc23)c2ccccc21 (configuration not stated) the results were EPAC1 ag val -10.2%.
For CC(COc1ccccc1)N(CCCl)Cc1ccccc1 (configuration not stated) the results were EPAC1 ag val 3.1%&7.5%&-11.7%&-10.7%&9.8%.
Screening CC(C)C[C@H](NC(=O)[C@H](CCC(N)=O)NC(=O)[C@H](CCCCN)NC(=O)[C@H](CCC(N)=O)NC(=O)[C@@H](N)CCC(=O)O)C(=O)N[C@@H](CCC(N)=O)C(=O)O returned EPAC1 ag val -25.7%.
`C/C(Nc1ccc2oc(=O)ccc2c1)=C1/C(=O)CC2[C@@H]1C2(C)C` (some centres not stated) gave EPAC1 ag val 9.1%.
`CC(C)CN1CCCC2(CCN(C(=O)c3csnn3)CC2)C1` gave EPAC1 ag val 9.0%.
Cc1c(C(=O)N2CC[C@@H]3CCCC[C@H]3C2)sc2ncnc(NCCc3ccccn3)c12 was read as EPAC1 ag val 1.2%.
For Cn1cc(-c2nc3cnc(N4CCNCC4)nc3n(C3CC3)c2=O)c2ccccc21 the results were EPAC1 ag val -3.5%.
For N#Cc1cccc(NC(=O)N2CCC3(CC2)CCN(C(=O)c2cccc(F)c2)CC3)c1 the results were EPAC1 ag val -43.0%[inhibitor].
COc1cccc(Nc2ncc3nc(C)c(=O)n(Cc4cccs4)c3n2)c1 was read as EPAC1 ag val inconclusive.
Screening COc1ccccc1CNc1cc(-c2cccc(C#N)c2)ncn1 returned EPAC1 ag val 7.3%.
For Cc1cc2ccc(=O)oc2cc1OC[C@@H](O)C(C)(C)O the results were EPAC1 ag val 3.4%.
`Cc1nc(N=Nc2cc(S(=O)(=O)O)c3cc([N+](=O)[O-])cc(S(=O)(=O)O)c3c2)c(COP(=O)(O)O)c(C=O)c1O` gave EPAC1 ag val -9.3%&2.5%&-1.1%.
`Cc1cc(C(C)(C)C)cc(C)c1CC1=NCCN1` gave EPAC1 ag val -14.9%&20.6%&-10.0%.
For COc1cccc(Cn2c(=O)c(-c3ccc(Cl)cc3)nc3cnc(N(C)C)nc32)c1 the results were EPAC1 ag val inconclusive.
`Cc1ccc(C(=O)Nc2cnn(-c3ccc(C(=O)N(C)Cc4n[nH]c5c4CCCC5)cc3)c2)c(C)c1` gave EPAC1 ag val 21.3%.
COC(=O)[C@H]1[C@H]2CC3c4[nH]c5ccccc5c4CCN3C[C@@H]2CC[C@@H]1O (some centres not stated) was read as EPAC1 ag val 4.0%.
For Cc1cccc(CNc2ncnc3ccc(-c4ccc(C(=O)N(C)C)cc4)cc23)c1 the results were EPAC1 ag val 19.3%.
Cc1cccn2c(=O)c(-c3nnn[nH]3)cnc12 was read as EPAC1 ag val -4.9%.
CCC(=O)OCC(=O)[C@@]1(OC(=O)CC)[C@@H](C)C[C@H]2[C@@H]3CCC4=CC(=O)C=C[C@]4(C)[C@@]3(Cl)[C@@H](O)C[C@@]21C was read as EPAC1 ag val 29.2%.
COc1ncc2nc(C)c(=O)n(C[C@H]3CCCO3)c2n1 was read as EPAC1 ag val 20.5%.
Screening COc1ccc2c(c1)CCC1C2CC[C@@]2(C)C1CC[C@@H]2NCCCCCCN1C(=O)CCC1=O (some centres not stated) returned EPAC1 ag val -6.8%.
O=C(c1ccc(C(F)(F)F)cc1)N(Cc1cc2ccc(F)cc2nc1N1CCOCC1)C1CC1 was read as EPAC1 ag val 9.3%.
For COc1ccc(F)c(CN2CCOc3ccc(CN4CCC(Oc5cccnc5)CC4)cc3C2)c1 the results were EPAC1 ag val 3.5%.
CN(C)CC(C)(C)CNC(=O)c1cnn(-c2ncc3c(n2)-c2ccccc2CC3)c1-c1ccco1 was read as EPAC1 ag val -15.6%.
CC1(C)S[C@@H]2[C@H](NC(=O)[C@H](N)c3ccccc3)C(=O)N2[C@H]1C(=O)O was read as EPAC1 ag val -5.2%.
`COc1ccccc1-c1ccc(C(=O)N(C)C(C)c2ccon2)c(N2CCN(c3ccccc3F)CC2)n1` (configuration not stated) gave EPAC1 ag val -15.8%.

Of the compounds above, these contain a cyano group:
CN1CCN(c2ncnc3ccc(-c4ccccc4C#N)cc23)CC1 was read as EPAC1 ag val -45.7%[inhibitor].
For N#Cc1cccc(NC(=O)N2CCC3(CC2)CCN(C(=O)c2cccc(F)c2)CC3)c1 the results were EPAC1 ag val -43.0%[inhibitor].
Screening COc1ccccc1CNc1cc(-c2cccc(C#N)c2)ncn1 returned EPAC1 ag val 7.3%.

The listing continues:
`O=C(c1csnn1)N1CCC2(CCCN(c3ccccc3)C2)CC1` gave EPAC1 ag val -19.8%.
Screening O=C(c1cc(C(F)(F)F)cc(C(F)(F)F)c1)N1CCC[C@@]2(CCN(Cc3ccccc3)C2)C1 returned EPAC1 ag val -72.6%[inhibitor].
CC(=O)N1CCC[C@H]1C(=O)N1CCc2c(cnc(C)c2CNC(=O)/C=C/c2cccs2)C1 was read as EPAC1 ag val 4.4%.
COc1cccc(Cn2c(=O)c(-c3cccs3)nc3cnc(OC)nc32)c1 was read as EPAC1 ag val -2.0%.
Screening COc1cccc(Nc2ncc3nc(-c4ccccc4)c(=O)n(C)c3n2)c1 returned EPAC1 ag val 21.0%.
`CC(=O)OCOC(=O)CN(CC(=O)OCOC(C)=O)c1ccccc1OCCOc1ccccc1N(CC(=O)OCOC(C)=O)CC(=O)OCOC(C)=O` gave EPAC1 ag val 2.6%.
`CCCCCCCCCCC(CO)CCCCCCCC` (configuration not stated) gave EPAC1 ag val -45.5%[inhibitor].
`COC(=O)c1ccc(CN2CCOc3ccc(CN4CCC(O)(c5cccnc5)CC4)cc3C2)cc1` gave EPAC1 ag val 0.4%.
For CCC1CN(CCNC(=O)c2cccc(C(=O)OC)c2)Cc2cc(OC)ccc2O1 (configuration not stated) the results were EPAC1 ag val 0.6%.
Cc1ccc(S(=O)(=O)NC(=O)NN2CCCCCC2)cc1 was read as EPAC1 ag val 7.7%&23.4%&-6.9%&22.8%.
Screening Cc1cccc(CN2Cc3cccc4c3[C@H](C=CC4)CC2=O)c1 returned EPAC1 ag val 2.7%.
For c1cncc(CNc2ncncc2-c2ccc3c(c2)OCO3)c1 the results were EPAC1 ag val 7.3%.
`COc1ccc2[nH]cc(CCNc3cc(-c4ccoc4)ncn3)c2c1` gave EPAC1 ag val inconclusive.
CC12C(=O)OC(=O)C1(C)C1CCC2O1 (configuration not stated) was read as EPAC1 ag val 1.0%&-12.1%&4.2%.
Screening COc1ccc(OC)c(/C=C/c2ccnc3ccccc23)c1 returned EPAC1 ag val inconclusive.
C[C@H]1CCC(=O)N([C@H](CSc2ccccc2)Cc2ccccc2)CC1 was read as EPAC1 ag val 18.4%.
`CC(=O)NCCNc1nc(-c2ccccc2CN(C)C)nc2ccccc12` gave EPAC1 ag val -62.5%[inhibitor].
For CC(=O)c1ccccc1-c1ccc2c(c1)CC(CNC(=O)c1ccnc(Cl)c1)O2 (configuration not stated) the results were EPAC1 ag val -9.1%.
`Nc1ncnc2c1nc(Br)n2C1OC(CO)C(O)C1O` (configuration not stated) gave EPAC1 ag val -9.1%.
CN(C)C(=O)c1ccc(-c2nc(NCc3ccccc3)c3ccccc3n2)cc1 was read as EPAC1 ag val -4.6%.

Three compounds from above, sorted by count of non-hydrogen atoms, low to high.
For c1cncc(CNc2ncncc2-c2ccc3c(c2)OCO3)c1 the results were EPAC1 ag val 7.3%.
`COc1ccc2[nH]cc(CCNc3cc(-c4ccoc4)ncn3)c2c1` gave EPAC1 ag val inconclusive.
For CCC1CN(CCNC(=O)c2cccc(C(=O)OC)c2)Cc2cc(OC)ccc2O1 (configuration not stated) the results were EPAC1 ag val 0.6%.

Next results follow.
CO[C@@]1(NC(=O)Cc2cccs2)C(=O)N2C(C(=O)O)=C(COC(N)=O)CS[C@@H]21 was read as EPAC1 ag val -12.7%&25.6%.
`NCCCNCCCCN(CCCN)/[N+]([O-])=N/O` gave EPAC1 ag val -13.7%.
Screening CC[N+]1(CC)CCC(=C(c2ccccc2)c2ccccc2)C1C (configuration not stated) returned EPAC1 ag val -3.6%.
`CN1C(=O)CCC1c1cccnc1` (configuration not stated) gave EPAC1 ag val 6.5%&-37.2%.
Cc1cnc(-n2ncc(C(=O)NCCN3CCOCC3)c2C(C)C)nc1-c1ccc(F)cc1 was read as EPAC1 ag val 19.3%.
CC(C)(CO)[C@@H](O)C(=O)NCCCC(=O)O was read as EPAC1 ag val -0.5%.
Nc1nc(N)c2nc(CNc3ccc(C(=O)N[C@@H](CCC(=O)O)C(=O)O)cc3)cnc2n1 was read as EPAC1 ag val -2.9%.
For CCCCN1C[C@H](C)[C@@H](CC(=O)NCc2ccccc2)C1=O the results were EPAC1 ag val 22.9%.
For CCNc1ncc2nc(-c3ccc(F)cc3)c(=O)n(CCC#N)c2n1 the results were EPAC1 ag val 10.0%.
For COCC(=O)Nc1cc(C(=O)N2CCN(c3ccccc3)CC2C)c2c(c1)nc(-c1ccncc1)n2C (configuration not stated) the results were EPAC1 ag val 0.4%.
`CCOC(=O)C[C@H]1c2ccc(C(F)(F)F)cc2S(=O)(=O)N1C(C)(C)C` gave EPAC1 ag val -70.6%[inhibitor].
For Nc1c(N=Nc2ccc(-c3ccc(N=Nc4cc(S(=O)(=O)O)c5ccccc5c4N)cc3)cc2)cc(S(=O)(=O)O)c2ccccc12 the results were EPAC1 ag val -6.3%.
Screening N#CCCn1c(=O)c(-c2ccc(F)cc2)nc2cnc(N3CCOCC3)nc21 returned EPAC1 ag val -35.3%[inhibitor].
For O=C(/C=C/c1ccccc1)c1ccc(O)cc1 the results were EPAC1 ag val 13.3%.
`COC(=O)[C@H](NC(=O)c1cc(-c2ccccc2)nc2ccccc12)c1ccccc1` gave EPAC1 ag val 2.4%&11.1%.
Screening COc1ccccc1CN1CC[C@@]2(CCCN(C(=O)c3cnccn3)C2)C1 returned EPAC1 ag val 18.6%.
`CN1CCc2cc(Cl)c(O)cc2[C@@H](c2ccccc2)C1` gave EPAC1 ag val -3.7%&-14.0%&-2.4%.
Screening COCCNc1nc(-c2c(C)noc2C)nc2ccccc12 returned EPAC1 ag val 1.9%.
CC(=O)OCC(=O)[C@@]12OC3(CCCC3)O[C@@H]1C[C@H]1[C@@H]3CCC4=CC(=O)C=C[C@]4(C)[C@@]3(F)[C@@H](O)C[C@@]12C was read as EPAC1 ag val 19.7%.
`COc1cccc(-c2cncnc2N(C)Cc2ccco2)c1` gave EPAC1 ag val -31.2%.

The closing 3 entries of the part above are carried over, then new ones follow.
Screening COCCNc1nc(-c2c(C)noc2C)nc2ccccc12 returned EPAC1 ag val 1.9%.
CC(=O)OCC(=O)[C@@]12OC3(CCCC3)O[C@@H]1C[C@H]1[C@@H]3CCC4=CC(=O)C=C[C@]4(C)[C@@]3(F)[C@@H](O)C[C@@]12C was read as EPAC1 ag val 19.7%.
`COc1cccc(-c2cncnc2N(C)Cc2ccco2)c1` gave EPAC1 ag val -31.2%.
`FC(F)(F)c1ccccc1-c1nc(NCc2cccnc2)c2ccccc2n1` gave EPAC1 ag val -35.5%[inhibitor].
`O=C(Oc1ccccc1)c1cccc(C(=O)Oc2ccccc2)c1` gave EPAC1 ag val -21.7%.
Screening Cc1c(C(=O)NCCCN2CCCC2=O)cnn1-c1ncc2c(n1)-c1ccccc1CC2 returned EPAC1 ag val 5.3%.
O=[N+]([O-])c1ccc2cn[nH]c2c1 was read as EPAC1 ag val 2.9%.
CCC1CN(CC(=O)NC(C)CO)Cc2cc(OC)ccc2O1 (configuration not stated) was read as EPAC1 ag val -2.0%.
Screening O=C(c1cccc(F)c1)N1CCC2(CC1)CN(C(c1ccccc1)c1ccccc1)C2 returned EPAC1 ag val inconclusive.
Screening Cc1ncc2c(c1CNS(=O)(=O)N(C)C)CCN(C(=O)c1ccc(F)cc1Cl)C2 returned EPAC1 ag val 5.7%.
Screening CC(=O)ON(C(C)=O)c1ccc(/C=C2/C=Cc3ccccc32)cc1 returned EPAC1 ag val inconclusive.
`C#CCCCCCCCCCCCC(O)CC(O)CO` (configuration not stated) gave EPAC1 ag val -55.5%[inhibitor].
